# Source: PubChem BioAssay
# VACV Venus inh – inhibitors of vaccinia virus (Venus reporter) | Vaccinia virus Venus reporter expression, fluorescence | Potency, µM (series often up to 36.5 µM), for the others: at the highest dose activity change, negative = inhibition, actives largely listed as inhibitors | 0.46% of 330,000 active; active means well fitted inhibition curve with a large enough effect; inconclusive means small, poorly fitted or top-dose-only effect; inactive means no such curve, though single readings can be large or run the other way; tested in A549 cells; also: nearly all actives have a fitted effect of over 30% in size; inactives centre near -10
# VACV mCherry inh – inhibitors of vaccinia virus infection (mCherry reporter signal) | Vaccinia virus mCherry reporter infection, fluorescence; about a quarter of the inactives have no number | 0.63% of 310,000 active | Potency, µM (series often up to 36.5 µM), without a hit: at the top dose activity change, negative = inhibition, most hits filed as inhibitors; active = well fitted inhibition curve with a large enough effect; inconclusive = small, poorly fitted or top-dose-only effect; inactive = no such curve, though single readings can be large or run the other way; tested in A549 cells; also: nearly all actives have a fitted effect of over 35% in size; inactives centre near -10
# The depositor's hits bear a star; i = inactive; ? = inconclusive; / = no result given; & = joins results of further samples; [ ] = dose if it differs, or a comment. % is scaled to controls: 0 for no effect and ±100 for the full control effect; potency is read from the fitted curve at half-maximal effect. Not a hit list; about 0.82% have a hit in one of these screens.
mol	VACV mCherry inh	VACV Venus inh
Cc1cc(NC(=O)c2cccs2)ncc1NC(=O)C(C)(C)C	-8.1%	-3.9%
O=C(O)CCC(=O)N1CCC(n2nnc3cc(C(F)(F)F)ccc32)CC1	1.0%	-2.7%
CCc1c(C)nc(SCC(=O)N2C(C)CCCC2C)[nH]c1=O (stereo unspecified)	-1.4%	-14.7%
CC(C)CCN1CC(C(=O)NCc2ccc(F)cc2)CC1=O (stereo unspecified)	i	-5.6%
O=C(C1=C[C@@H](C2CC2)C[C@@H](OCc2ccc(CO)cc2)O1)N1CCN(Cc2ccccc2)CC1	?	-22.6%
CCCN1C(=O)/C(=C/c2ccc(C)o2)SC1=Nc1ccc(OCC)cc1	/	0.3%
CCCNC(=O)C(CC)NS(=O)(=O)c1ccc(OC)cc1 (stereo unspecified)	-12.2%	-2.4%
Cc1cccc(CNc2ncnc3ccc(-c4ccccc4CN(C)C)cc23)c1	i	-23.5%
CCc1cccc(NC(=O)CCn2nc(C)cc2C)c1	1.0%	-4.4%
Cc1cc(C)n(C(C)CC(=O)NCc2ccccc2C)n1 (stereo unspecified)	-10.3%	0.2%
CCOC1=C2CN(S(=O)(=O)c3ccc(C)cc3)C(c3cccc(Cl)c3)CC2NC(c2ccccc2)C1 (stereo unspecified)	-5.8%	-9.8%
O=C(Cc1ccccc1)NC(=S)Nc1ccc(N2CCCCC2)cc1	-24.1%	-18.8%
CC(=O)Nc1ccc(S(=O)(=O)N2CCSC2c2ccc(Cl)cc2)cc1 (stereo unspecified)	?	?
CCCCn1nnnc1C(c1cc2ccccc2o1)N1CCCCC1 (stereo unspecified)	41.5%[activator]	5.7%
Cc1cc(=O)[nH]c(S/C=C/c2ccccc2)n1	-0.8%	-14.2%
O=C1NN(c2ccccc2)C(=O)/C1=C\c1cccn1-c1ccc(Cl)c([N+](=O)[O-])c1	i	-3.3%
CCN(CC)CCn1c2c(c(SCC(=O)Nc3cc(C)cc(C)c3)nc1=O)CCC2	-21.5%	9.9%
C[C@H]1CN([C@@H](C)CO)C(=O)Cc2cc(NS(=O)(=O)c3cn(C)cn3)ccc2O[C@@H]1CN(C)C(=O)Nc1ccc(F)cc1	i	-1.9%
COC(=O)C[C@H]1C=C[C@@H](NC(=O)Cc2cccnc2)[C@@H](CO)O1	-6.4%	-5.3%
CS(=O)(=O)NCCOc1ccc(S(=O)(=O)N2CCCc3ccccc32)cc1	-15.4%	-22.2%
COc1ccc(/C=N/N=C2/NC(=O)C(CC(=O)O)S2)cc1OCc1ccc(Cl)cc1 (stereo unspecified)	-12.7%	-12.3%
Cc1ccc(Cl)cc1NC(=O)CC1NCCNC1=O (stereo unspecified)	-13.3%	-2.4%
CN1c2cccc3cccc(c23)N(C)C1(C)C	-11.2%	-7.7%
CCO[C@@H]1OC(C(N)=O)=C[C@H](c2cn(C(C)=O)c3ccccc23)[C@H]1CCCO	-1.8%	-3.6%
COc1cc(C2C3=C(COC3=O)Oc3cc4c(cc32)OCO4)cc(OC)c1O (stereo unspecified)	31.6µM*	?
COc1ccc(Cl)cc1C(=O)NNC(=O)COC(=O)c1ccc(Br)o1	-16.2%	-22.9%
CC(C(=O)Nc1ccc(F)c(F)c1F)N(C)Cc1cccs1 (stereo unspecified)	-23.5%	-13.1%
Cc1ccc(-n2c(C)nnc2SCC(=O)Nc2ccccc2)cc1	i	-21.1%
Cc1cc(OC(F)F)ccc1NC(=S)NCCc1ccccc1	i	-6.0%
Cc1nn(-c2ccccc2)c(OC(=O)c2ccccc2Cl)c1S(=O)(=O)c1ccccc1	-9.5%	3.8%
COC(CNC(=O)C1CCCN1C(=O)OCc1ccccc1)OC (stereo unspecified)	i	-14.5%
Cc1cc(N)n(-c2ccccc2)n1	i	0.0%
FC(F)(F)c1cccc(-c2cncc(N3CCN(CCN4CCCC4)CC3)n2)c1	-1.2%	-2.9%
COc1ccc([C@@H]2[C@@H]3C(=O)N(C(C)(C)C)C(=O)[C@@H]3[C@]3(C)C(=O)N(c4cccc(C)c4)C(=O)N23)cc1	i	-20.1%
CC(C)(C)C(=O)NNC(=O)c1cnccn1	-19.6%	-5.8%
O=C(CN1C(=O)c2ccccc2C1=O)Nc1ccccc1N1CCOCC1	-5.1%	-2.7%
Cc1ccc(C)c(NC(=O)CSc2nc(=O)n(Cc3ccncc3)c3c2CCC3)c1	-18.9%	-6.5%
O=C(Cn1c(=O)n(CCCS(=O)(=O)C2CCCCC2)c(=O)c2ccccc21)Nc1ccc(F)c(Cl)c1	-6.7%	-4.7%
COc1ccccc1-c1nc(SCc2ccccn2)n[nH]1	/	-6.0%
O=C(CNS(=O)(=O)c1cccs1)NCc1ccc(F)cc1	i	6.7%
CCc1ccc(C(=O)c2cn(CC(=O)Nc3cccc(C)c3C)c3nc(C)ccc3c2=O)cc1	9.6%	4.1%
CC(=O)N1CCOc2cc(S(=O)(=O)NCc3ccccc3Cl)c(Cl)cc21	-17.7%	-10.3%
CC(C)CC(C(=O)NCc1ccccn1)N1C(=O)c2ccccc2C1=O (stereo unspecified)	/	-19.8%
O=C(c1ccccc1)c1cc(F)c(N2CCOCC2)cc1Cl	?	?
CCC(C)NS(=O)(=O)c1ccc(OCC(=O)Nc2ccc(F)cc2F)cc1 (stereo unspecified)	/	-19.0%
COc1cc(NC(=O)c2ccccc2)c(OC)cc1NC(=O)Cc1ccc(Br)cc1	-19.5%	-20.0%
O=C(Nc1ccc2ccccc2c1)c1nc(S(=O)(=O)Cc2ccccc2F)ncc1Cl	-20.1%	-18.7%
CCn1c(=O)c2sccc2n(Cc2ccc(C)cc2)c1=O	i	-6.6%
CCOC(=O)c1cc(NC(=O)Nc2cc(C)ccn2)c(C)nc1C	-18.9%	-9.7%
CCCOc1cccc(C(=O)NCCCNC(=O)c2ccccn2)c1	-17.8%	-7.1%
Cc1ccc(Cl)cc1N1CCN(C(=O)c2cnc(N3CCOCC3)c3ccccc23)CC1	?	?
Cc1ccc(S(=O)(=O)NCC(c2ccco2)N2CCN(c3ccccc3F)CC2)cc1 (stereo unspecified)	-10.2%	-9.9%
Cc1cc(=O)[nH]c(N=N/C(=N/Nc2ccc(O)cc2)c2ccccc2)n1	-18.6%[1.46 µM]	-12.3%
COC1(NS(=O)(=O)c2ccc(Br)cc2)C(C)=CC(=O)C=C1C	-6.1%	-3.3%
Cn1nc(-c2ccc(F)cc2)nc2c(=O)n(C)c(=O)nc1-2	0.631µM*	2.82µM*
OCCN1CCN(Cc2cccc(Oc3ccc(Cl)cc3)c2)CC1	-15.7%	-17.2%
Cc1ccc(N2C(=O)NC3(CCCCC3)C2=O)cc1	-9.6%	-6.4%
Cc1oc2c(CN(C)C)c(O)ccc2c(=O)c1-c1ccc2ccccc2n1	-8.2%	-12.6%
CC(C)CC1OC(C(C)C)Cc2[nH]c(=S)[nH]c(=O)c21 (stereo unspecified)	/	0.0126µM*
Cc1cc(=O)oc2c(O)c(O)ccc12	?	-5.5%&-19.1%

# Next part:
mol	VACV mCherry inh	VACV Venus inh
O=c1[nH][nH]c(=O)c2cc([N+](=O)[O-])ccc12	-12.4%	-0.6%&-14.6%
CC(=O)Nc1cccc(C(=O)OC(C)C(=O)N2CCc3ccccc32)c1 (stereo unspecified)	-4.6%	2.7%
COc1ccccc1N1CCN(Cc2nnnn2CCc2ccccc2)CC1	-7.7%	-10.2%
Cc1ccc(F)cc1NC(=O)CCSc1nc(-c2ccco2)cc(C(F)(F)F)n1	-4.1%	-2.6%
Cc1ccccc1OCCC(=O)OCC(=O)NC1CCS(=O)(=O)C1 (stereo unspecified)	i	-5.7%
CCCCCn1c(CCCNC(=O)c2cccc(C)c2)nc2ccccc21	-20.6%	?
CCn1c2c(c(=O)n3ncc(C(=O)Nc4cc(Cl)ccc4OC)c13)CN(Cc1ccc(OC)cc1)CC2	-10.9%	-12.2%
Cc1ccccc1CN1C(=O)C(C)Sc2ccc(-c3ccco3)cc21 (stereo unspecified)	-0.3%	6.9%
CCC(C)N1CC(C(=O)O)CC1=O (stereo unspecified)	-18.7%	-1.0%
Cn1c(=O)n(C)c2cc(N3CCCCC3)c(NC(=O)c3ccc(C(C)(C)C)cc3)cc21	-9.3%	-6.6%
CCCCN(C)Cc1c(C)[nH]c2ccc(OCC)cc2c1=O	i	-17.6%
C=CCSc1nnc2c(n1)OC(c1ccco1)Nc1ccccc1-2 (stereo unspecified)	i	-8.2%
COc1ccc(Cn2nnnc2C(c2ccc(C)cc2)N2CCN(C3CCCC3)CC2)cc1 (stereo unspecified)	/	-10.7%
O=[N+]([O-])c1ccc2c(c1)C(N1CCOCC1)/C(=C/C1(O)CCCCC1)O2 (stereo unspecified)	-12.2%	-3.4%
C=CCOc1ccc(C(=O)Nc2ccc(OCC)cc2)cc1	i	-8.0%
COc1ccc(C2(C)NC(=O)N(CC(=O)Nc3ccc4ccccc4c3)C2=O)cc1OC (stereo unspecified)	-8.8%	-7.1%
CC(=O)Cc1nsc(NC(=O)c2ccc(F)cc2)n1	-13.4%	0.3%
CC1C(=O)C(C)C(c2ccc([N+](=O)[O-])cc2)NC1c1ccc([N+](=O)[O-])cc1 (stereo unspecified)	-5.0%	-4.0%
COc1ccc(S(=O)(=O)N2CCN(c3cccc(C)c3C)CC2)c2ccccc12	-3.5%	3.9%
O=C(NCc1ccco1)c1cc(-c2cccnc2)nc2ccc(Cl)cc12	-23.0%	-13.9%

# A draw from above in order of SMILES length, falling:
mol	VACV mCherry inh	VACV Venus inh
COc1ccc(S(=O)(=O)N2CCN(c3cccc(C)c3C)CC2)c2ccccc12	-3.5%	3.9%
Cc1ccccc1OCCC(=O)OCC(=O)NC1CCS(=O)(=O)C1 (stereo unspecified)	i	-5.7%
COc1ccccc1N1CCN(Cc2nnnn2CCc2ccccc2)CC1	-7.7%	-10.2%

# (continued)
mol	VACV mCherry inh	VACV Venus inh
COc1ccc(CCC(=O)Nc2ccccc2C(F)(F)F)cc1	i	-9.7%
O=C(c1ccc(Nc2nc3ccccc3n3nnnc23)cc1)N1CCN(c2cccc(C(F)(F)F)c2)CC1	-19.6%	-15.5%
Oc1ccccc1-c1cc(-c2ccc(Cl)cc2)n[nH]1	8.91µM*	?
CC1CCN(CCC(=O)Nc2ccc(Br)cc2)CC1	-18.3%	-13.5%
CC(C)CCNC(=O)c1cc2c(=O)n3ccccc3nc2s1	-9.3%	-24.8%
O=C(NCCc1ccc(Cl)cc1)c1ccc(Nc2nc3ccccc3n3nnnc23)cc1	?	-28.8%
O=C(Cc1cccs1)N1CCN(c2ccc(F)cc2)CC1	/	-11.7%
CCCCNC(=O)CNC(=O)c1nn(-c2ccc(OC)c(OC)c2)c(=O)c2ccccc12	-13.5%	-10.3%
COc1cc(CN2CCC(n3nccc3NC(=O)c3ccccc3OC)CC2)ccc1F	i	-20.0%
COc1cccc(CNC(=O)c2ccc3c(c2)nc2n3CCC(C)C2)c1OC (stereo unspecified)	-12.4%	-15.9%
CCc1c(C(=O)c2ccc(Cl)cc2)oc2c(C)c3oc(=O)cc(C)c3cc12	/	-11.4%
CN1C/C(=C/c2ccncc2)C(=O)/C(=C/c2ccncc2)C1	-2.3%	6.6%
CCCCC1(C2CCCC2)NC(=O)NC1=O (stereo unspecified)	i	-2.9%
O=C(CN1C(=O)c2ccccc2S1(=O)=O)Nc1ccc(S(=O)(=O)N2CCCCCC2)cc1	-9.5%	-5.6%
COc1ccc(S(=O)(=O)NNC(=O)Nc2ccc(F)cc2F)c(OC)c1	-14.2%	-11.5%
O=C(Oc1ccc2c(-c3ccccc3)cc(=O)oc2c1)C1CCCCC1	/	?
CCN(CC)S(=O)(=O)c1ccc(NC(=O)CN(c2ccc(OC)cc2OC)S(C)(=O)=O)cc1	i	-13.2%
CN(C)CCCN(C(=O)c1ccc2c(c1)OCCO2)c1nc2ccccc2s1	-12.5%[7.34 µM]	-8.6%[7.34 µM]
CC(=O)Nc1ccc(C(=O)N2CCCC(c3cc(C(=O)NCc4cccnc4)no3)C2)cc1 (stereo unspecified)	3.0%	6.0%
Cc1ccc(C(=O)NCCNc2ccc([N+](=O)[O-])cc2C(F)(F)F)cc1	-25.7%	?
CC1CCC(NCCNC(=O)c2ccco2)CC1 (stereo unspecified)	-2.0%	5.2%
Cc1ccccc1CSc1nc(-c2cccc(F)c2)nc2c1Cc1c(CO)cnc(C)c1O2	-7.5%	-7.8%
O=c1cc(CSc2nnc(-c3cccs3)n2Cc2ccccc2)nc2sc3ccccc3n12	-14.6%	?
Cc1nc2c(-c3ccccc3)c(C)nn2c(C)c1CCC(=O)O	i	2.3%
CC(C)(C)[C@H]1COC(=O)CC/C=C\C[C@@H](CC(=O)N[C@H](CO)Cc2ccccc2)C(=O)N1	-20.1%	-5.3%
CCN(CC)S(=O)(=O)c1ccc(C)c(NC(=S)NNC(=O)C2CC2)c1	i	-7.3%
Cc1ccccc1-n1c(=O)cc(N2CCC3(CC2)OCCO3)[nH]c1=O	-8.6%	-3.9%
COC(=O)[C@H](C)NC(=O)Nc1cccc(C)c1	/	-6.4%
CCOc1ccc(/C=N/NC(=O)c2ccc(Cn3cc([N+](=O)[O-])cn3)o2)cc1	?	-17.0%
c1ccc(COCCCn2cc(-c3ccccc3)nn2)cc1	i	-7.4%
